GIV-Gai inh – inhibitors of GIV GBA-motif binding to rat Galpha-i3 | Galpha-i3/FITC-GIV peptide fluorescence polarization, 90 min; active compounds read low; scaled: aluminum fluoride 0%, vehicle 100% | percent of control (FP), % (concentration not given with the values) | 210,000 tested, 0.42% active | AID 1224905;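 active = replicate mean at 85% of control or lower, very high polarization wells dropped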;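 note: wells of about 15 µL received 100 nL stock; the first replicate is given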
Target sequence (P08753 whole entry, looked up): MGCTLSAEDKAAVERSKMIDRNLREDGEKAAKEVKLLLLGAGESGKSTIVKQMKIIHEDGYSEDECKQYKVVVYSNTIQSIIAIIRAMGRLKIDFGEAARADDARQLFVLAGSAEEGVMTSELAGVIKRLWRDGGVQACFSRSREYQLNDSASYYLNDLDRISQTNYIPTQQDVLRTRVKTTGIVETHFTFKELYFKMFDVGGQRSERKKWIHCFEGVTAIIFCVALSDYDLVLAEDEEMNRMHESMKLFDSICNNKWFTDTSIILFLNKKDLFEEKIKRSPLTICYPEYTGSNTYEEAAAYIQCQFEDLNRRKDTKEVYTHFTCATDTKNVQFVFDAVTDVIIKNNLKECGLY
Sa growth 42C – blocks Staphylococcus aureus growth | S. aureus RN4220 growth, OD600, 20 h, 42 °C; active compounds read low | relative growth, % (no concentration beside the values) | 170,000 tested, 0.53% active;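 active = growth at 42 °C up to 50% and 20 or more points under that at 30 °C, or under 10% at both; inconclusive = no clear call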;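 note: 300 nL library stock went into each well; scaled to the means of positive and negative controls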
HCMV NEC inh – inhibitors of HCMV UL50-UL53 nuclear egress complex interaction; HTRF UL50-UL53 interaction, normalized percent inhibition; inhibition, % (concentration not given with the values); 190,000 tested, 0.15% active; AID 1918969;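 active = both replicates at 50% or more, plus weaker picks with an unusually low signal ratio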;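 note: stock transfer was 100 nL into about 20 µL; 0% = negative control wells and 100% = wells with untagged competitor protein; inactives centre near -12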
Sa growth 42C second temp – recorded beside Sa growth 42C, whose call it bears; relative growth, %; measured here: growth at 30 °C;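 optical density after 20 h as mean of two plates; 100% = untreated growth and lower means inhibition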
Active calls of the source: *; ? = inconclusive; · = no result given; & = joins results of further samples.

Fields – HCMV NEC inh	GIV-Gai inh	Sa growth 42C	Sa growth 42C second temp
Cc1cc(Cl)ccc1NC(=O)c1cccn1-c1cccnc1
 : -10.8	107.4	·	·
COc1ccccc1-c1nnc2n(CCc3ccccc3)c(=O)c3ccccc3n12
 : -8.7	97.7	99.5	89.2
Cc1nc2cc(-c3ccc(Cl)cc3)nn2c(C)c1CCC(=O)N1CCN(c2ccccc2)CC1
 : 1.7	99.5	88.2	104.8
O=C(Nc1ccc(N2C(=O)C3C4C=CC(C4)C3C2=O)cc1)Nc1ccccc1O (stereo not drawn)
 : -23.7	102.9	94.2	80.0
Cc1ccc2c(=O)cc(C(=O)Nc3c(C)cccc3C)oc2c1
 : -19.5	110.4	92.4	90.6
O=C(COC(=O)c1cc2ccccc2oc1=O)Nc1ncccn1
 : -14.5	·	100.3	96.2
COc1ccc(S(=O)(=O)NC2CCCc3ccccc32)cc1OC (stereo not drawn)
 : -3.1	101.2	93.9	95.2
NC(CCc1nc2ccccc2[nH]1)c1nc2ccccc2[nH]1 (stereo not drawn)
 : -12.2	106.4	99.8	87.1
O=C(NCc1ccc2c(c1)OCO2)c1cc2n(n1)CCCN(Cc1ccc(Cl)cc1)C2=O
 : -20.5	101.7	·	·
C#CC1(NC(=O)NC(=O)c2ccccc2Cl)CCCCC1
 : -1.9	107.2	103.8	97.7
CCOc1ccc(C(=O)Nc2ccc3nc(SCC(=O)N4CCOCC4)sc3c2)cc1
 : -4.7	109.1	?	·
CCOC(=O)c1ccc(NC(=O)c2cc3c([nH]c2=O)CC(c2ccccc2)CC3=O)cc1 (stereo not drawn)
 : ·	96.3	97.4	87.4
CC(C)CCNC(=O)C1CCCN(S(=O)(=O)N2CCOCC2)C1 (stereo not drawn)
 : -15.7	101.0	103.9	86.0
CCOc1ccc(C(=O)NN2CCN(C)CC2)cc1
 : -10.4	100.8	102.5	108.8
Cc1ccc(NC(=O)N2CCc3cc(S(=O)(=O)N4CCC(C)CC4)ccc32)cc1
 : 5.8&-18.2	108.4&104.9	93.9	93.8
CCCCCOC(=O)CSc1ncnc2c1sc1nc(N3CCOCC3)c3c(c12)CCCC3
 : -31.6	93.9	77.2	90.5
COc1cccc(-n2cc(C(=O)Nc3ccc(C)cn3)c3ccccc3c2=O)c1
 : -82.7	103.4	78.6	85.8
CN1C(=O)CSc2ccc(NC(=O)Nc3ccc(Cl)cn3)cc21
 : -9.9	108.6	·	·
Cc1cc(C)n(CCc2nnc(N)s2)n1
 : -32.0	96.7	84.1	88.8
Cc1cc2c(cc3c(=O)n(CC(=O)NCc4ccccc4)ncn32)o1
 : -3.6	104.0	92.7	85.8
Clc1cccc(Cl)c1CSCc1cc2ccccc2o1
 : 3.1	99.6	101.8	96.4
Cn1c(=O)n(C)c2cc(CNC3CCCCC3)ccc21
 : -2.1	99.9	104.1	93.4
Cc1ccc(OCC(=O)Nc2ccc(S(=O)(=O)Nc3ncccn3)cc2)c(C(C)(C)C)c1
 : -34.9	106.3	106.8	86.1
COc1ccccc1N1CCN(C(=O)Nc2cn(CC(C)C)c(=O)c3ccccc23)CC1
 : ·	100.0	78.7	86.5
CCOC(=O)c1ccc(Cn2c3ccccc3c3nc4ccccc4nc32)o1
 : -21.1	100.3	·	·
Cc1cccc(NS(=O)(=O)CC23CCC(CC2=O)C3(C)C)c1 (stereo not drawn)
 : 8.4	106.0	115.8	91.8
COc1ccccc1NCCC(=O)Nc1cccc(C)c1C
 : 0.2	·	89.6	92.4
CCC(=O)N1CCc2cc(Br)cc(S(=O)(=O)N3CCCC(C(=O)Nc4cccc(C)c4C)C3)c21 (stereo not drawn)
 : -3.5	108.8	93.2	93.9
CC(C)CC(=O)N1CCC2(CC1)Nc1cc(F)ccc1-n1cccc12
 : -35.0	99.6	·	·
COc1ccc(Nc2nc3c(S(=O)(=O)c4ccc(C)cc4)nnn3c3ccsc23)cc1Cl
 : ·	99.0	100.3	79.4
COc1ccc(C2CC(=O)NC2=O)cc1Br (stereo not drawn)
 : -9.6	103.0	101.7	83.8
COC(=O)C1=C(CSc2nccn2C)NC(=O)NC1c1ccc(OC)cc1 (stereo not drawn)
 : -22.5	102.9	95.1	77.9
COc1ccc2c(c1)C=C(C(=O)Nc1ccc(-n3cnnn3)cc1)C=CO2
 : -9.7	106.2	·	·
CSc1nnc2ccc(-c3cccnc3)nn12
 : -30.7	103.9	95.4	98.5
COc1ccc(C(=O)CS(C)(=O)=O)cc1
 : -9.8	99.4	·	·
CCc1ccccc1NC(=O)C(Cc1cccc(OC)c1)c1nn[nH]n1 (stereo not drawn)
 : -15.6	94.9	105.9	104.8
CC(=O)Oc1c[n+]([O-])n(-c2ccccc2)n1
 : -16.4	·	78.0	89.4
CC(C)C(=O)Nc1nnc(-c2ccccc2)s1
 : -18.2	·	104.5	83.2
O=C(CSc1nnc(NC2CC2)s1)c1ccc[nH]1
 : -12.9	·	94.5	64.9
O=S(=O)(c1ccc(Br)s1)N1CCCC1
 : ·	123.3	114.3	97.2
FC(F)(F)c1cccc(Oc2nccnc2-c2noc(-c3cccs3)n2)c1
 : -3.3	101.5	93.5	86.0
CC1=C(C(=O)O)N2C(=O)[C@@H](NC(=O)[C@H](N)C3=CCC=CC3)C2SC1 (stereo partly drawn)
 : -18.4	·	?	·
COc1ccccc1NC(=O)N1CCN(C(c2ccccc2)c2ccccc2)CC1
 : -25.1	106.2	98.8	88.2
CCC1C(=O)N=C(SCC(=O)Nc2ccc(C)cc2)N(c2ccccc2)C1=O (stereo not drawn)
 : -28.5	108.7	·	·
c1cncc(-c2nnc3sc(-c4ccncc4)nn23)c1
 : -29.0	103.9	·	·
Cn1c(=O)c(C2=NN=C3NNC(c4ccccc4)C32)c(O)c2ccccc21 (stereo not drawn)
 : -6.8	·	93.4	84.5
CC(=O)Nc1cccc(C(=O)OCC(=O)Nc2nnc(-c3ccccc3)o2)c1
 : 7.7	·	75.2	41.3
COCCOC(=O)c1c(C)oc2ccc(NS(=O)(=O)c3c(C)cc(C)cc3C)cc12
 : 7.7	106.8	103.3	80.1
O=C(O)CC1(CC(=O)NC2CCN(Cc3ccccc3)CC2)CCCC1
 : -6.2	·	86.1	99.2
CC(=O)Nc1ccc(-c2nnc(-c3ccccc3)c(-c3ccccc3)n2)cc1
 : -4.5	99.6	98.6	87.7

More records.
Fields – HCMV NEC inh	GIV-Gai inh	Sa growth 42C	Sa growth 42C second temp
COc1ccccc1CNC(=O)CSCc1nc(-c2ccccc2F)oc1C
 : -13.6	101.5	87.8	78.2
c1csc(CCNc2ncnc3sc4c(c23)CCC4)c1
 : ·	106.3	98.2	69.5
CC(=O)NC(Cc1ccc(C)c(C)c1)C(=O)O (stereo not drawn)
 : -0.4	109.3	105.9	107.3
COc1ccc(C(c2c(O)cc(C)n(Cc3ccco3)c2=O)N2CCN(c3ccccc3)CC2)cc1 (stereo not drawn)
 : ·	99.6	89.5	86.4
O=C(NC1CCCCC1)C1CC(c2ccccc2O)=NO1 (stereo not drawn)
 : -2.7	101.3	111.8	84.4
COc1ccc(C(=O)NCCc2nc(-c3ccccc3Cl)no2)cc1OC
 : -0.6	103.1	98.2	79.9
O=S(=O)(c1cccc2nonc12)N1CCCC1c1ccc(F)cc1 (stereo not drawn)
 : -49.3	116.9	99.9	100.0
Cc1ccc2cc3cc(C(=O)NCCCN4CCN(Cc5ccccc5)CC4)oc3nc2c1
 : -109.7	99.0	95.2	80.5
COc1ccccc1C(=O)Nc1ccc(C(O)(C(F)(F)F)C(F)(F)F)cc1
 : -21.9	108.6	93.4	75.3
COC(=O)c1cc(NC(=O)[C@H](CCS(C)(=O)=O)N2Cc3ccccc3C2=O)cc(C(=O)OC)c1
 : -22.1	104.7	95.2	73.1
O=C(COC(=O)C1CC(=O)N(Cc2ccccc2)C1)Nc1ccc(Cl)cc1F (stereo not drawn)
 : -27.2	·	96.8	87.3
Cc1nc(-n2[nH]c(C)c(CC(=O)NC(C)C)c2=O)sc1C
 : -14.5	98.7	·	·
O=C(c1sc2ccccc2c1Cl)N1CCc2ccccc21
 : 5.4	·	109.4	130.9
O=C(CSc1ccc(-c2ccccn2)nn1)Nc1ccccc1
 : -12.9	105.5	62.2	65.6
C=CCn1c(SCC(=O)Nc2nc(C)c(C)s2)nnc1-c1cc2cccc(OC)c2o1
 : -18.9	100.5	101.6	96.1
O=C(c1cc(C(F)(F)F)cc(C(F)(F)F)c1)N1CC=CCC1
 : 14.5	98.1	125.3	102.3
O=C(NCc1ccc(Cl)cc1)c1ccc2c(c1)nnn2C1CCCC1
 : ·	105.3	102.2	91.8
Cn1nnnc1SCCNCc1ccc(Cl)cc1Cl
 : 7.6	97.3	·	·
Cc1nc2c3ccccc3nc(SCc3cc(F)cc4c3OCOC4)n2n1
 : ·	94.0	114.2	93.6
COc1ccccc1OCc1nnc(SCC(=O)N2CCc3ccccc3C2)n1C
 : ·	100.7	95.2	87.6
CN(c1ccccc1)c1nc(-n2ccnc2)nc(-n2ccnc2)n1
 : -6.8	·	99.7	18.8
O=C(CSC1=NCCc2ccccc21)c1ccccc1Cl
 : -3.1	107.7	99.3	100.2
CN1CCN(C)C1=O
 : -2.1	·	82.9	89.3
O=C(CN1C(=O)c2ccccc2C1=O)Nc1ccccc1C(=O)O
 : -53.9	99.8	88.4	80.8
O=CN1CCN(C(=O)C(Cc2c[nH]c3ccccc23)NC(=O)c2cccs2)CC1 (stereo not drawn)
 : -14.4	·	89.3	87.9
CCOc1ccc(NS(=O)(=O)c2ccc3c(c2)NC(=O)CCS3)cc1
 : ·	98.2	98.1	88.9
CCN1CCN(C(=O)c2nc(-c3nn(-c4ccc(F)cc4)c(=O)n(CC)c3=O)no2)CC1
 : -111.4	99.6	·	·
O=c1sc(Nc2ccc(Cl)c(Cl)c2)nc2ccccc12
 : -35.0	·	122.1	77.6
CC1(C)CC(=O)C2=C(C1)OC1=C(C(=O)CC(C)(C)C1)C2(C)C
 : -2.6	100.3	·	·
COc1ccc(-c2nnc(SCC(=O)N3CCC(c4ccccc4)=N3)n2CC2CCCO2)cc1 (stereo not drawn)
 : -23.1	·	90.1	87.8
CCN(C(=O)CSc1ncnc2ccccc12)c1ccccc1
 : -41.4	·	115.4	85.4
CC1=C(C(=O)N2CCN(c3cc(C)ccc3C)CC2)C2(CCC(C)CC2)OC1=O (stereo not drawn)
 : -24.1	100.7	107.1	95.3
O=C1/C(=C\c2cccs2)SC(=S)N1c1ccccc1
 : ·	102.8	98.8	103.0
COc1ccccc1CNC(=O)c1cn(C2CCCC2)c(=O)c2c1c1ccccc1n2C
 : ·	98.2	105.7	83.3
CC(C)n1nnnc1SCC(=O)c1ccc2c(c1)OCCO2
 : 4.5	99.5	87.1	71.0
